High-throughput results from PubChem BioAssay.
Calb FLC – C. albicans growth modulation with fluconazole. C. albicans CaCi-2 (fluconazole-resistant clinical isolate) + fluconazole, Alamar Blue growth, 48 h. growth inhibition, % (test concentration not listed). 0.57% of 300,000 active. AID 1979;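 active means most replicates above 75%; inconclusive means exactly half above 75%; inactive means most below 75%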;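 further: all wells also contain fluconazole at 8 µg/ml as a sub-toxic cotreatment; 0% = median of DMSO wells and 100% = median of geldanamycin control wells; wells of about 8 µL received 7.5 nL stock; the first replicate is given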
Vif TR-FRET – inhibitors of Vif binding to APOBEC3G peptide, primary screen, biochemical, TR-FRET, GST-Vif 1-94, biotin-A3G peptide, dose response retest (AID 1117319). 0.57% of 260,000 active. TR-FRET GST-Vif / biotin-A3G peptide binding; higher % means a stronger effect; test concentration not given here; strong numbers were not always called active. one-dose inhibition, %; IC50 in µM for titrated hits;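 active means above the screen mean plus three standard deviations and confirmed in dose response; inconclusive means results disagree or hit not tested in dose response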;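 further: Vif residues 1-94 fused to GST binding biotinylated APOBEC3G peptide 110-148; 0% = full assay without inhibitor and 100% = GST in place of GST-Vif; retest series ran down from 100 µM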
AF4-AF9 inh – blocks AF4 peptide binding to human AF9; 0.47% of 350,000 active; inhibition, % at 10 µM; AlphaScreen, biotin-AF4 peptide binding to FLAG-AF9; P42568;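 active means every replicate reaching a set inhibition limit, whatever the replicate mean, cut at about 25% in these data; inconclusive means mean inhibition reaches that limit but some replicates miss it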;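 further: 0% = plate neutral control median and 100% = total signal loss; the record names both 10 and 1 µM as test concentration; the first replicate is given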
Target sequence (P42568 whole entry, looked up): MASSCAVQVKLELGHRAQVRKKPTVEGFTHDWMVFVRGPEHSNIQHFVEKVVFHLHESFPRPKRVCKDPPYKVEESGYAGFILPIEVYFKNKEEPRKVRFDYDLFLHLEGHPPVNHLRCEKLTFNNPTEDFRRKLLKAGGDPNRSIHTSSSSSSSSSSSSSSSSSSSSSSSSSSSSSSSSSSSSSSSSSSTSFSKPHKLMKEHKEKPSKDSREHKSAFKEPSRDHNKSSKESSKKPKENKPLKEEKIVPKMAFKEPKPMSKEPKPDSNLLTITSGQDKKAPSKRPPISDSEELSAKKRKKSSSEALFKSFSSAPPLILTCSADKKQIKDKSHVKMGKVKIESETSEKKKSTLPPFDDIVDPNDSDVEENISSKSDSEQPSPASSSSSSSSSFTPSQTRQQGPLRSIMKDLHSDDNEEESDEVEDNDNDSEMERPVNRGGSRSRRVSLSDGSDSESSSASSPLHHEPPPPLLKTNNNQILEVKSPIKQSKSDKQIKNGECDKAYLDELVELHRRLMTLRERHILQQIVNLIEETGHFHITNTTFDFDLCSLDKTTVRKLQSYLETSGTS
T cruzi repl – blocks replication of Trypanosoma cruzi; 1.4% of 300,000 active; T. cruzi beta-gal in NIH3T3, luminescence, 90 h; inhibition, % (test concentration not listed);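 active means mean inhibition across valid replicates above about 55%, limit read from the data; inconclusive means mean below that limit but half or more replicates reach it; inactive means mean below it, under half of replicates reach it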;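 further: signal also drops with host cell toxicity which is not excluded here; 0% = plate median of DMSO wells and 100% = zero luminescence signal; higher percent means less beta-gal luminescence so fewer parasites; stock transfer was 50 nL into about 50 µL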
Beta cell apopt – blocks beta cell apoptosis | INS-1E cytokine-induced death, ATP luminescence, 48 h; percent of positive-control rescue, neutral wells zero | protection from apoptosis, % (concentration not given with the values) | 0.8% of 300,000 active | AID 435005;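 active means all replicates at 75% or more, or half of them and the mean; inconclusive means half reach 75% but not the mean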;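 further: 0% = cytokine-treated negative control wells and 100% = positive control rescue; higher means more ATP so stronger rescue from cytokine killing; wells of about 40 µL received 100 nL stock; the first replicate is given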
Bfl-1 A1 inh – inhibitors of the anti-apoptotic protein A1, read as caspase activation; MEF A1-2A-BIM cells, Caspase-Glo 3/7 luminescence, 3 h; percent of clofoctol response, vehicle zero; caspase activation, % (no concentration beside the values); 0.066% of 330,000 active; AID 2462;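 active means over half of replicate activation scores above 10%, or exactly half above 10 with the replicate mean above 10; inconclusive means replicate mean below 10 yet half the replicates above 10; inactive means over half of replicates below 10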;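 further: wells of about 30 µL received 50 nL stock; many hits fall short of the cut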
RanGTP-Imp inh – disruptors of Ran-importin-beta complex formation – biochemical, FRET, CFP-Ran, YFP-importin-beta, homogeneous, primary screen | cell-free CFP-Ran/YFP-importin-beta FRET ratio | inhibition, % (test concentration not listed) | 1.1% of 300,000 active | AID 2216;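 active means most replicates above 15%; inconclusive means exactly half above 15%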;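 further: 0% = DMSO wells and 100% = Ran loaded with GDP instead of GTP; wells of about 40 µL received 100 nL stock; the first replicate is given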
LANA-H2A inh – blocks KSHV LANA binding to histone H2A/H2B | Q9QR71 | cell-free LANA-H2A/H2B peptide, fluorescence polarization | inhibition, % (no concentration beside the values) | 0.6% of 320,000 active | AID 2629; in the data active means inhibition mostly above about 10%, no sharp cut-off; inactive means mostly below about 6.7%;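 further: stock transfer was 7.5 nL into about 10 µL; 0% = median of vehicle wells and 100% = median of positive control wells; one replicate is shown; the record names a cut of 25% in any replicate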
* hit, by the source's call; ? = inconclusive; . = no result given; & = joins results of further samples.

SMILES	Calb FLC	Vif TR-FRET	AF4-AF9 inh	T cruzi repl	Beta cell apopt	Bfl-1 A1 inh	RanGTP-Imp inh	LANA-H2A inh
O=C(CCc1cn(Cc2ccc(F)cc2)c2ccccc12)N1CCOCC1	8	-7%	10	8	-4	-0.7	-1.7	1.2
O=[N+]([O-])c1ccc(O)c(C=Nc2cccc3ccccc23)c1	10	1%	-4.5	-13	6	0.1	3.3	1.1
Cc1oc(-c2cccs2)nc1CS(=O)CC(=O)NCCCN1CC(C)CC(C)C1 (stereo not given)	-2	3%	2.6	-18	-1	-0.3	3.2	3.6
COc1ccc(C(=O)Nc2ccc(NC(C)=O)cc2)cc1S(=O)(=O)N1CCCC1	.	-13%	1.1	.	-5	1.1	.	2.0
CCOc1ccc(NS(=O)(=O)c2ccc(C(=O)N(C)CC(=O)Nc3ccc(C)cc3)cc2)cc1	10	-6%	0.6	24	1	-0.3	2.6	2.0
CCc1nnc(NC(=O)CCC(=O)NCCc2ccc(OC)c(OC)c2)s1	-3	-8%	.	-3	-3	0.8	?	-1.7
CC1(C)CC(=O)C2=C(C1)N(Cc1cccnc1)C(=O)C2(NC(=O)c1cccnc1)C(F)(F)F (stereo not given)	-5	24%	.	12	0	0.7	2.3	-3.3
O=C(C[n+]1ccc(C(=O)N/N=C/c2ccc(Cl)cc2Cl)cc1)c1ccccc1	-5	7%	.	-5	-1	0.2	-1.1	-2.3
O=C(CNC(=O)c1ccccc1)OCC(=O)c1cccs1	4	.	3.2	-6	-2	1.6	-0.3	-3.0
COc1cc(NC(=O)CN2C(=O)CN(C)C2=O)c(C)cc1[N+](=O)[O-]	5	-9%	1.7	-2	-17	1.0	-2.3	1.7
COc1cccc(CN(C)C(=O)c2cc(COc3c(F)cccc3F)on2)c1	51	.	-1.8	17	0	0.5	-2.5	-1.9
NC(=O)[C@@H]1CC2(CC(c3cccc(NC(=O)CC(c4ccccc4)c4ccccc4)c3)=NO2)CN1C(=O)c1ccc(Cl)cc1 (stereo not given in full)	13	7%	-2.4	57*	3	0.8	7.5	-3.1
CCOC(=O)c1[nH]nc2c1C(=O)N(Cc1ccccc1)C2=O	24	19%	.	-8	4	0.0	0.8	-1.3
CSc1nc2ccc(NS(=O)(=O)c3ccc4c(c3)OCCO4)cc2s1	.	3%	.	-14	9	0.3	6.7	-0.6
Cc1ncsc1CCSc1n[nH]c(=O)n1-c1ccccc1	6	-2%	.	8	-8	-0.9	0.6	-3.0
C=CCNC(=S)NNc1nc2sc3c(c2c(=O)[nH]1)CC(C)(C)OC3	34	.	-4.2	-6	-8	-0.3	-0.3	1.8
CCOC(=O)CC(=O)CSc1nc(CC)c(C)cc1C#N	1	-11%	-5.1	12	-5	-0.4	2.7	1.7
COc1ccc(CN(C)C(=O)C2CSC3(C)CCC(=O)N23)cc1OC (stereo not given)	.	2%	2.3	.	-2	-0.2	.	.
O=C(NCc1c[nH]c2ccccc12)c1ccccc1	21	.	-0.7	0	-3	-0.8	-1.7	0.9
COC(=O)c1c(C)oc2c1cc(NS(=O)(=O)c1ccc(C(=O)O)cc1)c1ccccc12	0	.	2.5	3	-6	0.2	?	1.5
CC1(C)CC(=O)C(C(C2=C(O)CC(C)(C)CC2=O)c2ccc(Br)s2)C(=O)C1 (stereo not given)	-2	.	5.3	-9	-4	-0.1	0.0	3.7
Cc1cnc(C(=O)OCC(=O)Nc2ccc(C)c(S(=O)(=O)N3CCCCC3)c2)cn1	-2	14%	-1.6	-14	-6	0.7	4.7	4.4
O=C(Cn1nnc(-c2ccccc2)n1)c1ccccc1	-19	22%	-29	1	.	1.0	-0.7	-6.2
O=C(NCC(=O)N(c1cccc(F)c1)C(C(=O)NC1CCCC1)c1ccncc1)c1cccs1 (stereo not given)	4	.	1.5	0	0	-0.8	-7.3	5.0
COc1ccc(-c2nnc(C(C)Nc3cccc(C(=O)NC4CC4)c3)o2)cc1 (stereo not given)	.	.	0.1	.	4	0.0	.	-0.1

Other results follow.
SMILES	Calb FLC	Vif TR-FRET	AF4-AF9 inh	T cruzi repl	Beta cell apopt	Bfl-1 A1 inh	RanGTP-Imp inh	LANA-H2A inh
Cc1c(C(=O)N2CCOCC2)sc(NC(=O)C(C)C)c1C#N	-6	5%	-0.9	-5	-3	1.4	12	6.8
COCCN(C(=O)CSc1nc2nc(C)cc(C)n2n1)c1c(N)n(Cc2ccccc2)c(=O)[nH]c1=O	-2	.	-2.5	-3	5	0.4	2.0	0.2
N#CCSCC(=O)Nc1ccc(Cl)cc1	-14	6%	.	-4	-9	0.3	-1.5	5.3
COC(=O)c1cc2c(ccn2-c2ccc(F)cc2)n1Cc1ccc(OC(C)=O)cc1	8	.	2.3	58*	1	0.7	-2.3	1.1
Cc1ccc(C2OC34CCCCCC3C(C#N)(C(=N)O4)C2(C#N)C#N)cc1 (stereo not given)	-3	9%	4.4	-11	0	0.5	34*	-2.2
O=C(C1CCCN(S(=O)(=O)c2ccc(Br)s2)C1)N1CCN(c2ccccc2)CC1 (stereo not given)	4	1%	4.1	15	4	0.0	-4.4	1.1
CCCC(C(=O)NCc1ccco1)N(C(=O)CNS(=O)(=O)c1ccc(Cl)cc1)C1CCCC1 (stereo not given)	7	-1%&2%	.	17	.	0.5	1.5	1.6
CCC(C)NC(=O)c1ccc(C2SCC(=O)N2Cc2ccccc2)cc1 (stereo not given)	-1	17%	0.2	2	.	-0.3	-1.1	5.4
c1cncc(-c2nc(-c3ccco3)cs2)c1	3	?	.	7	-13	-1.1	-0.3	3.7
C/C=C(\C)C(=O)N1CC2(CC(c3cccc(NC(=O)CCCCC)c3)=NO2)C[C@@H]1C(N)=O (stereo not given in full)	-6	4%	2.0	20	-5	-0.6	4.7	-6.3
O=C1CCCC(O)=C1C1C2=C(CCCC2=O)OC2=C1C(=O)CCC2	1	4%	0.3	-7	5	0.5	1.8	3.1
Cc1ccc(-c2n[nH]c(=O)c3ccccc23)cc1S(=O)(=O)Nc1ccccc1	24	.	.	15	17	-0.3	?	-3.8
Cc1oc2c(CN3CCCC3)c(O)ccc2c(=O)c1Oc1ccccc1Br	1	4%	.	-3	4	0.8	-0.6	3.3
O=C(Nc1ccc(Cl)cc1)Nc1cccc(C(=O)O)c1	-1	3%	-2.1	-6	-4	-9.1	3.7	-0.5
O=C(Nc1ccon1)C1CCN(S(=O)(=O)c2cccs2)CC1	-20	16%	.	4	.	-0.1	-0.7	-2.9
COc1cc(/C=C/C(=O)OCC(=O)Nc2oc(C)c3c(C)n[nH]c(=O)c23)ccc1OC(F)F	17	1%	-2.2	-9	.	-1.3	-1.2	0.7
Cc1onc(-c2c(F)cccc2Cl)c1C(=O)Nc1ccc(S(=O)(=O)N2CCOCC2)cc1	.	15%	3.4	.	-1	0.5	.	-1.5
COC(=O)c1cn(C(=O)c2ccc(OC)cc2)c2ccccc12	-5	.	-6.3	10	8	0.5	-0.9	1.8
COC(=O)c1sccc1NC(=O)c1ccc(C)o1	1	-5%	.	2	.	-0.8	-0.9	10
O=C(N/C(=C\c1ccco1)C(=O)N1CCCCC1)c1ccc([N+](=O)[O-])cc1	.	.	2.6	.	-4	-0.2	.	0.5
CCOC(=O)C1=C(C)NC(=O)NC1c1ccc(NC(C)=O)cc1 (stereo not given)	-2	?	.	-2	-5	0.4	0.3	3.8
O=C(O)C1=C[C@@H](c2coc3ccccc3c2=O)C[C@@H](OCCCCO)O1	-3	8%	-3.4	-9	0	0.1	1.0	1.9
COc1cccc(OC)c1OCCN1CCN(C(c2ccccc2)c2ccccc2)CC1	-11	2%	10	14	-4	1.8	-3.4	-1.2
O=C(NNc1ccc(Cl)nn1)c1ccc(Cl)cc1	-11	.	2.3	-7	-5	-0.9	-1.5	0.8
Clc1ccccc1CSc1nnc(-c2cccnc2)n1Cc1ccco1	-12	-4%	.	8	-2	1.1	-3.1	3.7

Additional compounds
SMILES	Calb FLC	Vif TR-FRET	AF4-AF9 inh	T cruzi repl	Beta cell apopt	Bfl-1 A1 inh	RanGTP-Imp inh	LANA-H2A inh
CCn1cc(CN2CCC(n3nccc3NC(=O)C3CCCC3)CC2)c(C)n1	-4	.	2.9	11	3	0.1	4.0	0.1
O=C(CCSc1nnc2scc(-c3ccccc3)n12)Nc1nc(-c2ccccc2)ns1	-3	5%&-3%	.	7	0	-0.2	6.0	-3.3
COc1cccc(/C=C/C(=O)OCC(=O)Nc2cccc(S(=O)(=O)NC3=NCCCCC3)c2)c1	.	.	4.8	.	-9	-0.3	.	-9.3
COc1ccc(-c2nc(CSCC(=O)N3CCN(C)CC3)c(C)o2)cc1OC	-5	4%	-2.5	-7	-4	-1.7	-1.9	3.9
Nc1c(C(=O)NCCC2=CCCCC2)sc2ccc(S(=O)(=O)N3CCCCC3)cc12	-10	-11%	-1.7	43	10	-1.0	0.6	-0.8
CSCC[C@H](NC(=O)OC(C)(C)C)C(=O)N/N=C/c1cccc2nccnc12	-8	9%	-0.7	-18	-2	1.2	-1.0	5.9
CC(C)C(=O)NC(C)C(c1cccs1)N1CCN(C)CC1 (stereo not given)	-6	-1%	-9.5	-8	6	-0.3	-0.4	-1.4
CCC(=O)Nc1nnc(Sc2ccc(N(C)C)cc2)s1	-4	3%	.	-6	0	-1.1	1.0	-4.1
CCOc1cc(CNc2ccc3c(c2)CCC3)ccc1O	0	13%	.	-7	0	-0.8	?	-0.5
COc1ccc(OC)c(C2CC(=O)c3c([nH]c(C(=O)OCC4CCCO4)c3C)C2)c1 (stereo not given)	0	-10%	-2.9	-7	14	-0.2	-1.7	-0.5
CCCN1CN(Cc2ccccc2)CC2=C1CC(C)(C)CC2=O	5	?	.	0	.	0.0	1.3	-3.1
S=c1[nH]nc(CNc2cccc(Cl)c2)o1	-4	-6%	-0.5	-9	-13	1.4	-2.3	-1.3
CC(C)(CN1CCCC1)NS(=O)(=O)c1ccc(Cl)cc1	54	.	1.8	9	1	-0.5	4.5	-6.8
CCCn1c(C)cc(-c2csc(N)n2)c1C	-3	12%	.	31	6	0.0	-6.1	1.7
COc1ccc(C2CC(c3ccc(Br)cc3)=NN2C(=O)CSC2=NN3CCCC(=O)N=C3S2)cc1 (stereo not given)	-5	.	.	60*	0	-0.4	-1.7	1.2
Cc1ccc(C(=O)Nc2ncn[nH]2)cc1	-2	.	-6.7	-21	-1	-1.0	0.3	4.9
CC(=O)c1c(C)[nH]c(C(=O)N(CCc2ccccc2)Cc2ccccc2)c1C	9	-4%	5.7	7	2	0.4	-5.1	-0.9
CC1=CCC(C(=O)O)(C(=O)N/N=C/c2cccnc2)C(c2ccccc2)C1 (stereo not given)	-6	11%	-1.8	-4	-2	0.7	-4.5	-1.1
CCc1nn(C(CC)C(=O)NCc2cccs2)c(=O)c2cc3occc3n12 (stereo not given)	-14	-1%	-1.0	13	-3	0.3	-1.9	0.2
Cc1cc2nnn(-c3nnc(-c4ccccc4)c4ccccc34)c2cc1C	17	-3%	.	23	7	-0.1	3.6	-2.6
CCOC(=O)C1CCCN(Cc2nc(Cc3cccc(F)c3)no2)C1 (stereo not given)	-1	-10%	-5.9	1	1	0.8	1.8	-16
